From PubChem
TRPML1 blocker: qHTS for Inhibitors of the Human Mucolipin Transient Receptor Potential 1 (TRPML1); TRPML1-inducible cells, Ca2+ dye fluorescence, FDSS; stronger effect = lower value; inhibition of EC80 agonist-evoked calcium signal; AID 624415, 2012; activity change, negative = inhibition, % (no concentration beside the values); hit rate 0.02% among 390,000; in the data active means activity change below about -50%; inconclusive means about -30% to -50%; inactive means above about -30%;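 note: stimulus is agonist 54-4 at its EC80 concentration; % is set by controls: 0 for no effect and ±100 for the full control effect; compound concentration not given in the record; the text of the record puts the active cut at -80%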
Target sequence (Q9GZU1 whole entry, looked up): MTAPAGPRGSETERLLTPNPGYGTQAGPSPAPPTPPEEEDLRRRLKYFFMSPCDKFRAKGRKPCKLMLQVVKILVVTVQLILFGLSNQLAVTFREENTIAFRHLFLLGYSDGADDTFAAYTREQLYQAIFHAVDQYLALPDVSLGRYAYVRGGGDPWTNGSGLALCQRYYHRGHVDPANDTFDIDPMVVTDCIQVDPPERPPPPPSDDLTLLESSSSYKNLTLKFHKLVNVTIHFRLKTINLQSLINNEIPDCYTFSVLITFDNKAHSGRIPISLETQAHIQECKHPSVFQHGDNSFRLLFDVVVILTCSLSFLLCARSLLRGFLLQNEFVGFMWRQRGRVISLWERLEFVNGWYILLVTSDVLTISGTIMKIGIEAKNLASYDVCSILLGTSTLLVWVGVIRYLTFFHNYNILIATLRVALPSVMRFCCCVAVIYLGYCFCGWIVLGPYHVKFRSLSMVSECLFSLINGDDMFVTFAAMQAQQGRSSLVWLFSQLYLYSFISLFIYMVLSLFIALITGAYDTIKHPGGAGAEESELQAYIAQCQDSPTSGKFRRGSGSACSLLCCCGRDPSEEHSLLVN
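Calcium fluorescence in TRPML1-DL cells induced overnight with Tet: a 110 s read after compound pin addition, then a 110 s antagonist read after challenge with 54-4 at 4 uM final (EC80).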
ClpP mod: qHTS Assay for Activators of ClpP; hit rate 1.9% among 340,000; ATP-dependent Clp protease proteolytic subunit (Bacillus subtilis (strain 168)), P80244; purified B. subtilis ClpP, FRET peptide cleavage, 20 min; AID 651965, 2013; Potency, µM (titrated, usually from 57.5 µM), inactives show at the top dose activity change, negative = active; active = well fitted falling curve with a large enough effect; inconclusive = small, poorly fitted or top-dose-only effect; inactive = no such curve, though single readings can be large or run the other way; note: potency is the fitted concentration of half-maximal effect; the source files actives as falling curves though it sought activators and does not explain the sign; nearly all actives have a fitted effect of over 65% in size; many hits overshoot -100%
Target sequence (P80244 whole entry, looked up): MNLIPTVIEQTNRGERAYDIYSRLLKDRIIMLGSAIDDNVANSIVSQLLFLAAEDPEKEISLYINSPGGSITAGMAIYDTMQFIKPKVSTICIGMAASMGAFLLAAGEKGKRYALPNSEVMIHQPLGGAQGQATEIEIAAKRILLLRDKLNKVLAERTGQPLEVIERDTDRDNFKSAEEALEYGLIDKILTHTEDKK
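Buffer: 100 mM Tris/HCl pH8, 100 mM KCl, 0.05% low protease BSA, 2.5% glycerol, 0.01% Tween-20. ClpP 10 microg/mL final; 20 min RT; delta FRET normalized to ADEP and DMSO controls.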
* hit, by the source's call; ? = inconclusive. Some of the compounds tested, so the mix of outcomes need not match the whole.

structure | TRPML1 blocker | ClpP mod
O=C(CCSCc1cccc(Cl)c1)NCc1ccccc1Cl | 1.0 | -1.6%
Cc1ccc(-c2nn(CC(=O)NC3CCCCC3)c3c2cnc2ccccc23)cc1 | 11.4 | -21.5%
CCOC(=O)c1cccc(NS(=O)(=O)c2cc(-c3cnc(C4CC4)o3)ccc2C)c1 | 2.9 | -7.7%
Cc1cccc(C(=O)OCc2cc(=O)n3nc(C4CC4)sc3n2)c1 | 4.6 | 0.3%
COc1cccc(C(=O)c2cn(CC(=O)Nc3cccc(C)c3C)c3nc(C)ccc3c2=O)c1 | 7.9 | 0.9%
O=C(OCc1ccccc1)c1ccc(-c2nnn(Cc3ccccc3F)n2)cc1 | -3.0 | -1.3%
OC(c1ccc(F)c(F)c1)c1nc(-c2ccc(F)c(Cl)c2)cs1 (stereo not drawn) | -1.3 | -0.5%
Cc1ccc(CNC(=O)CSc2nc3c(sc4ccccc43)c(=O)n2CCCC(=O)NCCO)cc1 | 0.9 | -9.9%
C(=C\c1ccccc1)/CN1CCN(C(c2nnnn2-c2ccc3c(c2)OCCO3)C2CC2)CC1 (stereo not drawn) | 4.9 | -0.4%
Cc1cc(F)ccc1NC(=O)C1CCCN(c2nnc(-n3c(C)ccc3C)s2)C1 (stereo not drawn) | 10.1 | 0.6%
C#CCSc1nc(-c2ccccc2)cc(-c2ccccc2)c1C#N | -5.8 | ?
COc1cccc(C(=O)Nc2ccc(NC(=O)c3ccc(C(C)(C)C)cc3)cc2)c1 | -4.7 | -3.7%
COc1ccc(C(=O)Nc2cc3c(cc2N2CCCC2)n(C)c(=O)c(=O)n3C)cc1OC | 3.2 | 31.6µM*
Cc1ccc2c(C)c(C(=O)NCC(c3ccc(Cl)cc3)N3CCOCC3)oc2c1 (stereo not drawn) | 5.1 | 0.3%
Cn1c(=O)c2c(nc(SCC(=O)Nc3ccc(OC(F)(F)F)cc3)n2Cc2cccc(C(F)(F)F)c2)n(C)c1=O | -0.8 | -3.5%
O=C(CN1C(=O)CSc2ccc(S(=O)(=O)N3CCCC3)cc21)NCc1ccc(Cl)cc1 | 20.7 | 0.5%
O=C(CN1C(=O)c2cccnc2Sc2ccccc21)Nc1cc(F)ccc1F | -12.1 | -6.0%
CC(C)NC(=O)c1nn(C)c2c1CS(=O)(=O)c1ccccc1-2 | -0.9 | -3.7%
CCOc1cccc2sc(N(Cc3cccnc3)C(C)=O)nc12 | 7.7 | -0.7%
COc1ccc2nc(NC(=O)c3nc(SCc4ccc(F)cc4)ncc3Cl)sc2c1 | 38.8 | 0.1%
CC1=C(c2ccc(C(C)C)cc2)S(=O)(=O)N=C1N1CCN(c2ccc(F)cc2)CC1 | 8.4 | -0.2%
CCc1cccc(NC(=O)CN2C(=O)CCc3cc(S(=O)(=O)N4CCOCC4)ccc32)c1 | -9.4 | 1.4%
CCn1cc(S(=O)(=O)c2cc(C)cc(C)c2)c(=O)c2cc(F)c(N3CCOCC3)cc21 | 40.5 | 4.8%
CCCS(=O)(=O)NC(=O)C1(C)CCCN(C(=O)c2ccc(C(F)(F)F)nc2C)C1 (stereo not drawn) | ? | -2.6%
COc1ccc(-c2noc(-c3ccc(N4CCN(c5ccccc5OC)CC4)c([N+](=O)[O-])c3)n2)cc1 | -3.1 | -0.9%
CC1CCN(c2nc3c(S(=O)(=O)c4cccc(Cl)c4)nnn3c3ccsc23)CC1 | -6.1 | 22.4µM*
COc1ccc(NC(=O)Cn2c(=O)oc3cc(S(=O)(=O)N4CCCCCC4)ccc32)cc1OC | 20.0 | 0.6%
Cc1ccc(N(CC(=O)NCCc2ccccc2)S(=O)(=O)N(C)C)cc1 | -12.5 | -0.1%
CCCCNC(=O)[C@@H](c1ccccc1)N1Cc2ccccc2C1=O | -13.8 | 0.7%
Cc1ccc(-c2onc(C)c2C)cc1S(=O)(=O)N1CCN(c2ccccc2F)CC1 | 30.7 | -0.5%
CC1=C(C(=O)Nc2ccccc2)C(c2ccc(C(=O)O)cc2)n2nc(SCC(=O)c3ccc(C)cc3)nc2N1 (stereo not drawn) | 30.9 | 0.1%
CCCCCCSc1nnc2c(n1)OC(C)Nc1ccc(Br)cc1-2 (stereo not drawn) | 8.3 | -0.8%
O=C(NCc1nc(-c2ccccc2)no1)c1ccco1 | -10.1 | -4.0%
O=c1cc(-c2ccccc2)nc(SCc2nc(-c3ccccc3Cl)no2)[nH]1 | 19.3 | 0.4%
CCNC(=O)C1(C)CCCN(C(=O)c2cccnc2Oc2ccccc2)C1 (stereo not drawn) | 6.0 | 1.9%
COc1ccc2c(c1)Cc1sc(NC(=O)c3ccccc3Br)nc1-2 | -10.7 | -5.5%
COc1ccccc1NC(=O)c1cc(S(=O)(=O)N2CCN(c3ccccc3Cl)CC2)ccc1F | 40.9 | -3.6%
COc1ccc(NC(=O)c2c(C)oc3ccc(O)c(CN4CCCCCC4)c23)cc1Cl | 21.8 | -3.8%
CCn1c(SCC(=O)Nc2ccc(C)c(C)c2)nnc1-c1nonc1NC(C)=O | 1.2 | -14.2%
CC(C)c1ccc(S(=O)(=O)c2nnn3c2nc(N2CCCC2)c2sccc23)cc1 | 8.1 | -0.9%
COc1ccc(OC)c(/C=C(\C#N)c2nc(-c3ccc(F)cc3)cs2)c1 | 8.5 | -0.6%
COc1ccccc1NC(=O)c1cc2c(=O)oc3ccc(C)cc3c2s1 | 9.3 | 16.5%
CN(Cc1ccccc1)C(=O)c1cccc(NC(=O)c2nsc3ccccc23)c1 | ? | -0.1%
COc1ccccc1N1CCN(S(=O)(=O)CCNC(=O)COc2ccccc2F)CC1 | 15.8 | 5.4%
CCC(=O)N1c2ccccc2CC1C(=O)NCCCN1CCN(c2ccc(OC)cc2)CC1 (stereo not drawn) | 6.9 | -5.0%
COc1ccccc1C(=O)Nc1ccc2oc(-c3cccc(Cl)c3Cl)nc2c1 | 5.4 | ?
COC(=O)c1ccc(Cl)cc1NC(=O)Nc1nnc(N(C)C2CCCCC2)s1 | 1.6 | -17.1%
CC(C)NC(=O)C(c1ccccc1)N1Cc2ccccc2C1=O (stereo not drawn) | 56.6 | 1.1%
Cc1c(Cl)cccc1-n1nnc(-c2nc(-c3ccc4c(c3)OCO4)no2)c1C | 55.9 | -11.5%
COc1ccc(CNC(=O)C(CC(C)C)N2Cc3ccccc3C2=O)cc1 (stereo not drawn) | 3.1 | -1.8%
Cc1nnc(NC(=O)C(=O)c2cc(C)n(-c3ccc(C)c(C)c3)c2C)s1 | 22.0 | -4.7%
COc1cccc(CNC(=O)c2sc3nc(C)cc(C)c3c2-n2cccc2)c1OC | -5.8 | -1.5%
Cc1cccc(N2CCN(c3ccc(C(=O)O)cc3NC(=O)c3cccc(Cl)c3)CC2C)c1 (stereo not drawn) | -9.0 | 0.5%
COc1ccc(NC(=O)c2ccc3c(SCC(=O)O)c4c(nc3c2)CCCC4)cc1OC | 10.0 | 3.0%
Cc1ccc(NC(=O)/C(C#N)=C/c2ccc(-c3ccc(Cl)c(C(=O)O)c3)o2)cc1C | 12.1 | -0.5%
COc1ccc(NC(=O)c2oc3ccccc3c2NC(=O)c2cc(=O)c3cc(Cl)ccc3o2)cc1 | 7.5 | -0.7%
CCc1ccccc1NC(=O)Cn1c(=O)ccc2cc(S(=O)(=O)N3CCCC3)ccc21 | -2.5 | -1.2%
CCc1c(C)c2cc3c(c(C)c2oc1=O)OCN(CCc1ccccc1F)C3 | 2.3 | 4.5%
CCCCOC(=O)c1ccc(NC(=O)C2(c3cccs3)CCOCC2)cc1 | 10.5 | 0.3%
CCOc1ccccc1NC(=O)c1c(NC(=O)c2cccc(C)c2)sc2c1CCC2 | -14.7 | -0.4%

Later entries:
structure | TRPML1 blocker | ClpP mod
CCOc1ccc(C(=O)Nc2c(C(=O)Nc3ccccc3F)oc3ccccc23)cc1OCC | 0.0 | -3.3%
CCc1ccccc1Nc1nc2cc(Cl)c(Cl)cc2nc1-n1nc(C)cc1C | 21.8 | -0.2%
Cc1cc(C)cc(Nc2ncnc3onc(-c4ccc(F)cc4)c23)c1 | -17.4 | -28.0%
CNC(C)C(=O)NC(C(=O)NC(C)C(=O)NNc1ccccc1)C(C)C (stereo not drawn) | 1.5 | 0.6%
Cc1c2cnn(CC(=O)NCCc3ccccc3)c(=O)c2c(C)n1Cc1ccccc1Cl | 16.8 | -2.8%
Cc1ccc(OCC(=O)Nc2cccc3ccc(C)nc23)c(C)c1 | -7.4 | ?
Cc1ccccc1C1=CCN(c2ncc(NC(=O)c3ccc(Cl)cc3)cc2C(=O)O)CC1 | 1.1 | -10.0%
O=C(CSc1nccn1Cc1ccco1)Nc1ccc(OC(F)(F)F)cc1 | -5.2 | 0.0%
O=C(CSc1nc2ccccc2c(=O)n1-c1ccc(Cl)c(Cl)c1)Nc1ccc2c(c1)CCC2 | 3.0 | -3.0%
COc1cc(OC)c(N(C)C(=O)c2sc3nc4n(c(=O)c3c2C)CCCC4)cc1Cl | 12.0 | -0.1%
CCOc1ccccc1CNC(=O)CSc1nnc(C)c2c(C)n(-c3ccccc3)nc12 | -3.1 | 1.5%
CCc1ccc(-n2nc(C)c3c(C(=O)Nc4cc(OC)cc(OC)c4)cc(C)nc32)cc1 | 5.2 | ?
CC(C)c1cc(C(=O)NCc2ccccc2)no1 | 9.0 | 1.0%
Cc1ccc(C(=O)Nc2cccc3cccnc23)cc1Cl | 31.4 | 8.2%
CCN1c2cc(C)ccc2-n2cccc2C12CCN(C(=O)Nc1cc(OC)c(OC)c(OC)c1)CC2 | -7.1 | -6.5%
COc1ccc(-n2c(SCC(=O)NCc3ccc(C)cc3)nc3n[nH]c(C)c3c2=N)cc1 | -24.6 | 64.7%
COc1ccc(CC(=O)Nc2sc3c(c2C(=O)Nc2c(C)cccc2C)CCCCC3)cc1 | -4.6 | 1.3%
CCOC(=O)C1(C)CCCCCN1C(=O)/C=C/c1ccccc1 (stereo not drawn) | 39.2 | 3.8%
Cc1ccc(NC(=O)CN2C(=O)COc3ccc(S(=O)(=O)N4CCOCC4)cc32)c(Cl)c1 | 19.5 | 0.8%
Cc1ccc(S(=O)(=O)N2C[C@H]3C(=O)C[C@@H]4C(=O)N(c5ccccc5)C(=O)[C@@H]4[C@@H]3C[C@H]2c2cccs2)cc1 | 13.2 | -0.4%
Cc1ccc(CN2C(=O)c3oc4ccc(C)cc4c(=O)c3C2c2ccc(O)cc2)cc1 (stereo not drawn) | 2.1 | -1.3%
Cc1ccccc1NC(=O)C1CCN(S(=O)(=O)c2c(C)noc2/C=C/c2ccco2)CC1 | -13.1 | -6.9%
CCOc1ccc(NC(=O)c2ccc3c(c2)c(C)c(C)n3Cc2ccc(F)cc2)cc1 | 40.4 | ?
CCc1nnc2c(NCc3ccccc3)nc3ccccc3n12 | -10.0 | -5.9%
CCOc1ccc(CCN2C(=S)N([C@@H](Cc3ccc(O)cc3)CN3CCC[C@@H]3CN3C(=S)NC[C@@H]3CC(C)C)C[C@@H]2Cc2ccc(O)cc2)cc1 | -6.5 | -0.2%
CCOc1ccc(OCC)c(NC(=O)c2cnc3c(-c4ccccc4)c(C)nn3c2C)c1 | 2.0 | 3.6%
COc1ccccc1C(=O)CC1(O)C(=O)N(CC(N)=O)c2ccccc21 (stereo not drawn) | -2.6 | -0.4%
Cc1cccc(Cn2c(SCc3ccc(C(=O)NCCc4ccccc4)cc3)nc3cccnc32)c1 | 18.1 | 4.2%
CCOC(=O)N1CCc2c(sc3c2c(=O)n(-c2ccc(CC)cc2)c(=O)n3CC(=O)c2ccc(F)cc2)C1 | -13.1 | -1.8%
Cc1cc(=O)n(CC(=O)Nc2cccc([N+](=O)[O-])c2)c(-n2nc(C)cc2C)n1 | 5.4 | 0.8%

Of the compounds above, these have a nitro group on carbon:
structure | TRPML1 blocker | ClpP mod
COc1ccc(-c2noc(-c3ccc(N4CCN(c5ccccc5OC)CC4)c([N+](=O)[O-])c3)n2)cc1 | -3.1 | -0.9%
Cc1cc(=O)n(CC(=O)Nc2cccc([N+](=O)[O-])c2)c(-n2nc(C)cc2C)n1 | 5.4 | 0.8%

Additional compounds follow.
structure | TRPML1 blocker | ClpP mod
O=C(Cn1ncc2c([nH]c3ccccc32)c1=O)Nc1cc(F)ccc1F | -15.5 | -8.6%
Cc1cccc(NC(=O)c2cccc(N3CCCS3(=O)=O)c2)c1 | 5.2 | 0.7%
COCCOC(=O)C1=C(C)N=C2SCCC(=O)N2C1c1ccc(OCc2ccccc2)c(OC)c1 (stereo not drawn) | 9.9 | 4.2%
COc1ccc(NC(=O)CN2C(=O)COc3ccc(S(=O)(=O)Nc4ccccc4)cc32)cc1 | 5.0 | -1.0%
COc1ccc(NC(=O)C2Cc3c(-c4ccc(NC(C)=O)cc4)ccnc3O2)cn1 (stereo not drawn) | 67.5 | 4.2%
